HNF4A DNA FP: change in binding of human HNF4 alpha to DNA | P41235 | HNF4a-FITC DNA binding, fluorescence polarization, 1 h | activity change, % at 10 µM | 360,000 compounds, 0.3% hits | AID 1224865; in the data active = activity change above about 30%, passing the limit was not always enough;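 also: controls were the assay level and a saturating level of protein; the project sought stronger binding though the title names inhibitors; some compounds called inactive have numbers as strong as hits; positive values seem to mean higher polarization but the record does not say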
Target sequence (P41235 whole entry, looked up): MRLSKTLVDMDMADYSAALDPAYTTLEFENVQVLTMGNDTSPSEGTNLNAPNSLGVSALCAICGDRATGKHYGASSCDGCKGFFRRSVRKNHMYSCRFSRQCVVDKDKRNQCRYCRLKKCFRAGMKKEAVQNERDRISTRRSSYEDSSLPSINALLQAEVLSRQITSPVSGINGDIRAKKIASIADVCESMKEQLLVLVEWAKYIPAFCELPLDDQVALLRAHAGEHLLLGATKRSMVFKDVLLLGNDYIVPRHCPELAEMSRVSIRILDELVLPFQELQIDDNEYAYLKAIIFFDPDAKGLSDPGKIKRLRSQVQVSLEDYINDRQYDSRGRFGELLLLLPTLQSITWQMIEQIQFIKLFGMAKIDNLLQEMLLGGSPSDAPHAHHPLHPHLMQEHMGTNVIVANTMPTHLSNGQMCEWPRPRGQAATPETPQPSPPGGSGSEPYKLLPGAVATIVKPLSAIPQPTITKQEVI
Vif TR-FRET: inhibitors of Vif binding to APOBEC3G peptide, primary screen, biochemical, TR-FRET, GST-Vif 1-94, biotin-A3G peptide, dose response retest (AID 1117319); 260,000 compounds, 0.57% hits; inhibition, %, or IC50 in µM where a hit was titrated; TR-FRET GST-Vif / biotin-A3G peptide binding; higher % means a stronger effect; test concentration not given here; strong numbers were not always called active;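 active = above the screen mean plus three standard deviations and confirmed in dose response; inconclusive = results disagree or hit not tested in dose response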;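 also: Vif residues 1-94 fused to GST binding biotinylated APOBEC3G peptide 110-148; 0% = full assay without inhibitor and 100% = GST in place of GST-Vif; retest series ran down from 100 µM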
LANA-H2B inh: blocks KSHV LANA binding to histone H2A/H2B. Q9QR71. cell-free LANA-H2A/H2B peptide, fluorescence polarization. inhibition, % (concentration not given with the values). 320,000 compounds, 0.6% hits. AID 2629; in the data active = inhibition mostly above about 10%, no sharp cut-off; inactive = mostly below about 6.7%;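 also: stock transfer was 7.5 nL into about 10 µL; 0% = median of vehicle wells and 100% = median of positive control wells; one replicate is shown; the record names a cut of 25% in any replicate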
ALR inh: inhibitors of human sulfhydryl oxidase ALR | P55789 | purified ALR, DTT oxidation, H2O2 HRP-luminol luminescence | inhibition, % (no concentration beside the values) | 290,000 compounds, 3.8% hits;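 active = mean and each replicate at 75% or more; inconclusive = only one of the two met; inactive = neither met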;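 also: stock transfer was 7.5 nL into about 7.5 µL; 0% = neutral wells and 100% = wells with inactivated enzyme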
Target sequence (P55789 whole entry, looked up): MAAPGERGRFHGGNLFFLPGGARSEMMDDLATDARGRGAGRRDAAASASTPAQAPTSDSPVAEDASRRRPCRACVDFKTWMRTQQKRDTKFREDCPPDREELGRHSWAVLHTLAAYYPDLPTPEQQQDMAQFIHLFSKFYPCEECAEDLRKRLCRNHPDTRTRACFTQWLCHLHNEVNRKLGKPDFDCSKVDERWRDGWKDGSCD
RanGTP-Impb inh: disruptors of Ran-importin-beta complex formation – biochemical, FRET, CFP-Ran, YFP-importin-beta, homogeneous, primary screen; cell-free CFP-Ran/YFP-importin-beta FRET ratio; inhibition, % (test concentration not listed); 300,000 compounds, 1.1% hits; AID 2216;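 active = most replicates above 15%; inconclusive = exactly half above 15%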;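 also: 0% = DMSO wells and 100% = Ran loaded with GDP instead of GTP; wells of about 40 µL received 100 nL stock; the first replicate is given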
Beta2AR agonist: activates human beta-2 adrenergic receptor causing internalization; P07550; response, % (no concentration beside the values); 340,000 compounds, 0.43% hits; Am2.2-beta2AR cells, FAP receptor internalization, flow cytometry; reference of the scale not given here; AID 504454;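 active = response above a set limit, near 3 SD of response in nonfluorescent compounds, cut at about 42% in these data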;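 also: stock transfer was 100 nL into about 11 µL; a reference agonist was the positive control; negative values mostly stem from fluorescent compounds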
Target sequence (P07550 whole entry, looked up): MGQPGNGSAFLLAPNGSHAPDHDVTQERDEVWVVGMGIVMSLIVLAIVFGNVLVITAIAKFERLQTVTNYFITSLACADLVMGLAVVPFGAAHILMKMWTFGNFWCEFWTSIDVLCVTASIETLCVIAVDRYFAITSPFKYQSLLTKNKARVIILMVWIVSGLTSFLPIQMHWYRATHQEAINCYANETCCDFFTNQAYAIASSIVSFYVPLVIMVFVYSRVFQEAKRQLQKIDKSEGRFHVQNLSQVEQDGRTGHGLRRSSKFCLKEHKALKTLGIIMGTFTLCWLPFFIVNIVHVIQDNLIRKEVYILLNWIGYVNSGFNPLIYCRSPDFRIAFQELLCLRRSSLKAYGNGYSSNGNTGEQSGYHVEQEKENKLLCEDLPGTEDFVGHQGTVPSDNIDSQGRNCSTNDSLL
Calb FLC: affects C. albicans growth with fluconazole. C. albicans CaCi-2 (fluconazole-resistant clinical isolate) + fluconazole, Alamar Blue growth, 48 h. growth inhibition, % (test concentration not listed). 300,000 compounds, 0.57% hits. AID 1979;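 active = most replicates above 75%; inconclusive = exactly half above 75%; inactive = most below 75%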;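 also: all wells also contain fluconazole at 8 µg/ml as a sub-toxic cotreatment; 0% = median of DMSO wells and 100% = median of geldanamycin control wells; wells of about 8 µL received 7.5 nL stock; the first replicate is given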
The depositor's hits bear a star.

Results for O=C(NCCN1CCOCC1)/C(=C/c1ccccc1)NC(=O)c1ccccc1 ?
HNF4A DNA FP: 1.8; Vif TR-FRET: 0%; LANA-H2B inh: -4.4; RanGTP-Impb inh: 2.1; Beta2AR agonist: 2; Calb FLC: -7

What do the screens show for `CC1CN(Cc2nc3c(c(=O)n(C)c(=O)n3C)n2Cc2cccc(Cl)c2)CC(C)O1` (centres undefined)?
HNF4A DNA FP: 3.0; Vif TR-FRET: 4%; LANA-H2B inh: -2.1; RanGTP-Impb inh: inconclusive; Beta2AR agonist: -2; Calb FLC: -5

What do the screens show for `CCC(=O)Nc1ccc(NC(=O)c2ccc3ccccc3c2)cc1`?
HNF4A DNA FP: 3.5; LANA-H2B inh: 3.7; RanGTP-Impb inh: -2.9; Beta2AR agonist: -6; Calb FLC: 18

What do the screens show for `COC(=O)[C@]1(C)CCC[C@@]2(C)C3CC[C@@]4(C)C[C@]3(CCC21)CC(=O)N4` (some centres undefined)?
HNF4A DNA FP: 0.1; LANA-H2B inh: -0.8; ALR inh: 3; Beta2AR agonist: 5

How did CCNC(=O)Nc1cc(OC)c(OC)cc1C(=O)O do in these assays?
HNF4A DNA FP: -1.0; LANA-H2B inh: -3.5; ALR inh: -9; RanGTP-Impb inh: 2.9; Beta2AR agonist: -9; Calb FLC: 1

How did O=S(=O)(c1ccc2nc(-c3ccco3)c(-c3ccco3)nc2c1)N1CCOCC1 do in these assays?
HNF4A DNA FP: 2.9; Vif TR-FRET: 3.8µM*; LANA-H2B inh: -2.3; ALR inh: -17; RanGTP-Impb inh: 9.2; Beta2AR agonist: -4; Calb FLC: -7

What do the screens show for `COc1ccc(-c2nnc(NC(=O)c3ccc([N+](=O)[O-])o3)o2)c(OC)c1`?
HNF4A DNA FP: -4.4; LANA-H2B inh: -4.2; ALR inh: -20; RanGTP-Impb inh: 1.3; Beta2AR agonist: 3; Calb FLC: -9

What do the screens show for `CCS(=O)(=O)C1=NN2C(=N)/C(=C\c3ccc(OC(=O)c4ccco4)c(OC)c3)C(=O)N=C2S1`?
HNF4A DNA FP: 20; LANA-H2B inh: 0.5; ALR inh: 54; RanGTP-Impb inh: 1.1; Beta2AR agonist: 15; Calb FLC: 44

Results for COC(=O)C1=CNC=C(C(=O)OC)C1c1ccc(C(=O)OC)cc1 ?
HNF4A DNA FP: 0.5; Vif TR-FRET: -6%; LANA-H2B inh: 4.1; ALR inh: -1; RanGTP-Impb inh: 5.5; Beta2AR agonist: 2; Calb FLC: -13

What do the screens show for `COc1ccc(Cn2cc([N+](=O)[O-])nc2C)cc1[N+](=O)[O-]`?
HNF4A DNA FP: 0.7; Vif TR-FRET: -2%; LANA-H2B inh: 1.6; ALR inh: -7; RanGTP-Impb inh: -2.1; Beta2AR agonist: 1; Calb FLC: 0

Results for COc1ccc(CCNC(=O)c2ccc3nc4cc(Cl)ccc4c(=O)n3c2)cc1OC ?
HNF4A DNA FP: 0.4; Vif TR-FRET: 0%; LANA-H2B inh: -10; ALR inh: -4; RanGTP-Impb inh: 2.3; Beta2AR agonist: 5; Calb FLC: 13

What do the screens show for `CCOc1ccc(N=C2Sc3nc4ccc(C)cc4cc3CN2CCOC)cc1`?
HNF4A DNA FP: 3.3; LANA-H2B inh: 7.8; ALR inh: -8; RanGTP-Impb inh: -5.4; Beta2AR agonist: -1; Calb FLC: 6

Results for O=C(N/C(=C/c1cccs1)C(=O)N1CCOCC1)c1cccs1 ?
HNF4A DNA FP: -0.1; Vif TR-FRET: -6%; LANA-H2B inh: -0.8; ALR inh: -9; RanGTP-Impb inh: 1.8; Beta2AR agonist: -5; Calb FLC: -4

How did N#C/C(=C\c1ccc(OCCN2CCOCC2)cc1)C(=O)Nc1ccc(S(N)(=O)=O)cc1 do in these assays?
HNF4A DNA FP: -3.5; LANA-H2B inh: -4.7; ALR inh: -2; RanGTP-Impb inh: -2.4; Beta2AR agonist: 3; Calb FLC: -8

What do the screens show for `CCCCn1c(N)c(N(CC(C)C)C(=O)c2cnc(C)cn2)c(=O)[nH]c1=O`?
HNF4A DNA FP: 1.3; Vif TR-FRET: -1%; LANA-H2B inh: -0.2; ALR inh: -2; RanGTP-Impb inh: -2.8; Beta2AR agonist: -2; Calb FLC: -8

What do the screens show for `Cc1cc(=O)[nH]c(SCC(=O)c2c(N)n(C)c(=O)n(C)c2=O)n1`?
HNF4A DNA FP: -0.2; Vif TR-FRET: 6%; LANA-H2B inh: 5.2; ALR inh: 7; RanGTP-Impb inh: -4.6; Beta2AR agonist: -1; Calb FLC: 1

How did CCOC(=O)c1cccc(OS(=O)(=O)Cc2ccccc2)c1 do in these assays?
HNF4A DNA FP: 6.9; LANA-H2B inh: -1.8; ALR inh: 3; RanGTP-Impb inh: -1.0; Beta2AR agonist: 5; Calb FLC: -16

Results for CCC(=O)Nc1nnc(-c2ccncc2)s1 ?
HNF4A DNA FP: -2.5; Vif TR-FRET: 8%; LANA-H2B inh: 0.2; ALR inh: 4; Beta2AR agonist: 7

What do the screens show for `Cc1noc(C)c1CSCC(=O)Nc1nc2ccccc2s1`?
HNF4A DNA FP: 1.5; Vif TR-FRET: 2%; LANA-H2B inh: -3.2; ALR inh: -1; RanGTP-Impb inh: 0.3; Beta2AR agonist: -5; Calb FLC: 0

What do the screens show for `CCOC(=O)c1cc(C)sc1/N=C/C1=C(O)CCCC1=O`?
HNF4A DNA FP: 1.8; Vif TR-FRET: 21%; LANA-H2B inh: -1.8; ALR inh: 32; RanGTP-Impb inh: inconclusive; Beta2AR agonist: -4; Calb FLC: 0

Results for C=CCNC(=O)CN1CCC(n2nnc3cc(C(F)(F)F)ccc32)CC1 ?
HNF4A DNA FP: 3.0; LANA-H2B inh: 0.6; ALR inh: -1; RanGTP-Impb inh: 4.2; Beta2AR agonist: -4; Calb FLC: -31

How did Cc1cc(Cl)ccc1OCC(=O)Nc1ccccc1C(=O)N1CCOCC1 do in these assays?
HNF4A DNA FP: 3.2; LANA-H2B inh: -3.9; ALR inh: -10; RanGTP-Impb inh: 4.0; Beta2AR agonist: -6; Calb FLC: 2

Results for CCn1c(COc2ccccc2C)nnc1SCC(=O)O ?
HNF4A DNA FP: -3.5; Vif TR-FRET: -4%; LANA-H2B inh: 3.4; ALR inh: -17; RanGTP-Impb inh: -4.6; Beta2AR agonist: -1; Calb FLC: 9

Results for NC(=O)c1nc(-c2cccs2)nc2c1[nH]c(=O)n2-c1ccc(F)cc1 ?
HNF4A DNA FP: 2.5; Vif TR-FRET: -5%; LANA-H2B inh: 4.2; ALR inh: 1; RanGTP-Impb inh: 6.1; Beta2AR agonist: -2; Calb FLC: 3

What do the screens show for `Cn1nnnc1SCC(=O)NCc1ccco1`?
HNF4A DNA FP: 2.4; Vif TR-FRET: 43µM*; LANA-H2B inh: -0.8; RanGTP-Impb inh: 1.6; Beta2AR agonist: -7; Calb FLC: -5

Results for O=C(C1CCC(=O)N(C2CCCCCC2)C1)N1CCN(c2ccccc2Cl)CC1 (centres undefined) ?
HNF4A DNA FP: -1.7; LANA-H2B inh: -5.4; ALR inh: 0; RanGTP-Impb inh: -4.0; Beta2AR agonist: -2; Calb FLC: -9

What do the screens show for `COc1cccc(OC)c1C(=O)OCC(=O)N1CCC(Cc2ccccc2)CC1`?
HNF4A DNA FP: -0.7; Vif TR-FRET: -1%; LANA-H2B inh: -1.8; ALR inh: 1; Beta2AR agonist: 3

Results for O=C(COC(=O)C1CC1)NC(=O)NCc1ccccc1 ?
HNF4A DNA FP: 2.9; Vif TR-FRET: -5%; LANA-H2B inh: 4.3; ALR inh: -8; RanGTP-Impb inh: 0.2; Beta2AR agonist: 5; Calb FLC: 26

How did Cc1cccc(CN2CCN(Cc3cccc(-n4cccn4)c3)CC2CCO)n1 (centres undefined) do in these assays?
HNF4A DNA FP: -1.4; Vif TR-FRET: 10%; LANA-H2B inh: -0.7; ALR inh: 2; RanGTP-Impb inh: -2.8; Beta2AR agonist: 2; Calb FLC: -10

How did CCOc1ccc(S(=O)(=O)N2CCOCC2)cc1NS(=O)(=O)c1ccc(OC)c([N+](=O)[O-])c1 do in these assays?
HNF4A DNA FP: -0.2; Vif TR-FRET: 1%; LANA-H2B inh: 1.4; ALR inh: -1; RanGTP-Impb inh: inconclusive; Beta2AR agonist: -4; Calb FLC: -1

Compounds listed so far with fluorine, in the order listed:
Results for C=CCNC(=O)CN1CCC(n2nnc3cc(C(F)(F)F)ccc32)CC1 ?
HNF4A DNA FP: 3.0; LANA-H2B inh: 0.6; ALR inh: -1; RanGTP-Impb inh: 4.2; Beta2AR agonist: -4; Calb FLC: -31

Results for NC(=O)c1nc(-c2cccs2)nc2c1[nH]c(=O)n2-c1ccc(F)cc1 ?
HNF4A DNA FP: 2.5; Vif TR-FRET: -5%; LANA-H2B inh: 4.2; ALR inh: 1; RanGTP-Impb inh: 6.1; Beta2AR agonist: -2; Calb FLC: 3

(continued)
How did Cc1ccc(/C=C/C(=O)NCc2cccs2)cc1 do in these assays?
HNF4A DNA FP: -3.9; Vif TR-FRET: 1%; LANA-H2B inh: 5.1; ALR inh: 21; RanGTP-Impb inh: -2.9; Beta2AR agonist: -3; Calb FLC: -21

What do the screens show for `COc1ccccc1CCNC(=O)c1cnccn1`?
HNF4A DNA FP: 0.3; Vif TR-FRET: 2%; RanGTP-Impb inh: 0.1; Beta2AR agonist: 9; Calb FLC: -7

Results for N#CC1=C(N)Oc2n[nH]c(-c3cccnc3)c2C1c1ccc([N+](=O)[O-])o1 (centres undefined) ?
HNF4A DNA FP: -8.5; Vif TR-FRET: inconclusive; LANA-H2B inh: -4.6; ALR inh: -1; RanGTP-Impb inh: 0.4; Beta2AR agonist: 5; Calb FLC: 46

How did Cc1ccc(C(=O)OCc2nnc(-c3ccccc3)o2)s1 do in these assays?
HNF4A DNA FP: -7.1; Vif TR-FRET: -9%; LANA-H2B inh: -4.5; ALR inh: 0; RanGTP-Impb inh: 4.8; Beta2AR agonist: -6; Calb FLC: 2

Results for O=C(CSc1nncn1-c1ccccc1)NCc1cccs1 ?
HNF4A DNA FP: -9.9; Vif TR-FRET: -4%; LANA-H2B inh: 1.3; ALR inh: -11; RanGTP-Impb inh: 1.1; Beta2AR agonist: 3; Calb FLC: -6

What do the screens show for `CC(C)C(NS(=O)(=O)c1ccccc1)C(=O)OCc1cc([N+](=O)[O-])cc2c1OCOC2` (centres undefined)?
HNF4A DNA FP: 1.0; Vif TR-FRET: 29%; LANA-H2B inh: -1.2; ALR inh: 2; RanGTP-Impb inh: 1.2; Beta2AR agonist: -6; Calb FLC: -2

Results for O=C(O)c1ccc(CSc2nc3ccccc3o2)cc1 ?
HNF4A DNA FP: -2.9; Vif TR-FRET: 27%; LANA-H2B inh: 15; ALR inh: 97*; RanGTP-Impb inh: 4.0; Beta2AR agonist: 10; Calb FLC: 46

What do the screens show for `Cc1cc(S(=O)(=O)c2ccc([N+](=O)[O-])cn2)ccc1Br`?
HNF4A DNA FP: -0.6; LANA-H2B inh: -11; ALR inh: -3; RanGTP-Impb inh: 2.3; Beta2AR agonist: 5; Calb FLC: -32

How did Cc1cc(C(=O)N/N=C/c2ccc([N+](=O)[O-])s2)n[nH]1 do in these assays?
HNF4A DNA FP: 0.8; Vif TR-FRET: 4%; LANA-H2B inh: 0.3; ALR inh: -51; RanGTP-Impb inh: 1.5; Beta2AR agonist: 13; Calb FLC: 5

How did CCCc1cc2c(cc1NC(=O)c1ccco1)OCO2 do in these assays?
HNF4A DNA FP: -3.0; Vif TR-FRET: -5%; LANA-H2B inh: -0.5; ALR inh: -10; RanGTP-Impb inh: 3.0; Beta2AR agonist: 3; Calb FLC: 3

How did COc1ccc(/C=C2/N=C(SC)NC2=O)cc1OC do in these assays?
HNF4A DNA FP: 1.3; Vif TR-FRET: -4%; LANA-H2B inh: 0.4; ALR inh: -41; RanGTP-Impb inh: 3.0; Beta2AR agonist: 0; Calb FLC: 45
